# High-throughput results from PubChem BioAssay.
# ALR H2O2 inh: inhibitors of human sulfhydryl oxidase ALR; purified ALR, DTT oxidation, H2O2 HRP-luminol luminescence; 290,000 tested, 3.8% active; inhibition, % (concentration not given with the values); P55789;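 active = mean and each replicate at 75% or more; inconclusive = only one of the two met; inactive = neither met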;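 note: stock transfer was 7.5 nL into about 7.5 µL; 0% = neutral wells and 100% = wells with inactivated enzyme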
# Target sequence (P55789 whole entry, looked up): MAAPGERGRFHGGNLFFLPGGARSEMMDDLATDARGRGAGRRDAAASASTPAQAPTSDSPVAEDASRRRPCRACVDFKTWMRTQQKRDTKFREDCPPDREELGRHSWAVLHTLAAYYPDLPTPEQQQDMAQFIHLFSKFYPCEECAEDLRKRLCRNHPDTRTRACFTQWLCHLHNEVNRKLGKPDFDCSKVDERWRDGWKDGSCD
# MLL AF4-AF9 inh: inhibitors of human MLL-AF4/AF9 interaction | P42568 | inhibition, % at 10 µM | AlphaScreen, biotin-AF4 peptide binding to FLAG-AF9 | 350,000 tested, 0.47% active;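 active = every replicate reaching a set inhibition limit, whatever the replicate mean, cut at about 25% in these data; inconclusive = mean inhibition reaches that limit but some replicates miss it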;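 note: 0% = plate neutral control median and 100% = total signal loss; the record names both 10 and 1 µM as test concentration; the first replicate is given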
# Target sequence (P42568 whole entry, looked up): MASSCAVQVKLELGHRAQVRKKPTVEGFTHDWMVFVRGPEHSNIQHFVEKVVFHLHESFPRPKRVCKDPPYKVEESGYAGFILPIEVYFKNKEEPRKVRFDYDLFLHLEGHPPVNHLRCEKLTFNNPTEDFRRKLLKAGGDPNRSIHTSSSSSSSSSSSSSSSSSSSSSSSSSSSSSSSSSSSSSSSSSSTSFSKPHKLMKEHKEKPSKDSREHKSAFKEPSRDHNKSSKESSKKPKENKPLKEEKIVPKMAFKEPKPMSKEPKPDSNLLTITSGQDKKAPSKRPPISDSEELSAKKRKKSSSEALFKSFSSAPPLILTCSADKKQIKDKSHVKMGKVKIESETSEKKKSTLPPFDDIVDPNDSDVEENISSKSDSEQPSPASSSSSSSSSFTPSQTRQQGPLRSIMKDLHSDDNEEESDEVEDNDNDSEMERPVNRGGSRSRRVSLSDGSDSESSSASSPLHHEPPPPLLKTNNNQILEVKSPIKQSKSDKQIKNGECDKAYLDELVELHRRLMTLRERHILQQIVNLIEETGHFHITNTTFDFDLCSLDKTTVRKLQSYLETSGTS
# HNF4A DNA FP: change in binding of human HNF4 alpha to DNA. activity change, % at 10 µM. 360,000 tested, 0.3% active. AID 1224865. HNF4a-FITC DNA binding, fluorescence polarization, 1 h; in the data active = activity change above about 30%, passing the limit was not always enough;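 note: controls were the assay level and a saturating level of protein; the project sought stronger binding though the title names inhibitors; some compounds called inactive have numbers as strong as hits; positive values seem to mean higher polarization but the record does not say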
# Ecoli growth: E. coli growth inhibition | Escherichia coli growth, OD600, 23 h; active compounds read low | OD600 absorbance (no concentration beside the values) | 330,000 tested, 0.21% active | AID 1053175;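 active = OD600 absorbance below the run mean of sample wells minus 3.6 SD, in any replicate, cut at about 0.56 in these data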;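 note: stock transfer was 300 nL into about 60 µL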
# Ecoli rRNA inh: inhibitors of bacterial rRNA selective over humanized ribosomes. 350,000 tested, 1.6% active. E. coli WT GFP vs humanized-ribosome RFP mutants, fluorescence, 24 h; active compounds read low; DMSO median 0, no signal -100. GFP signal change (wild-type ribosome), % (concentration not given with the values);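 active = significant combined selectivity score with lowered wild-type GFP, culture density cut under 30%, mutant RFP and density less affected; inactive = any of these conditions unmet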; note: one replicate is shown; some compounds called inactive have numbers as strong as hits
# FGF22 binding: shifts melting point of recombinant human FGF22; Q9HCT0; recombinant FGF22 thermal shift, SYPRO orange fluorescence; percent of sucrose octasulfate shift, DMSO zero; calls only at 9.99 µM; 340,000 tested, 1.5% active; AID 651658;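 active = melting point raised past a set limit in the mean and every replicate; inconclusive = no clear call; three in four hits are not shown here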
# Target sequence (Q9HCT0 whole entry, looked up): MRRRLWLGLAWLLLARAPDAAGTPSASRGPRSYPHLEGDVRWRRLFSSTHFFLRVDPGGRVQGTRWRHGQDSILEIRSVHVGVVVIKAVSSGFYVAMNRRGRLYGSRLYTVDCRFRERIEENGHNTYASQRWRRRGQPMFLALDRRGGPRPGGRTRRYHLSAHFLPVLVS
# Vif TR-FRET: inhibitors of Vif binding to APOBEC3G peptide, primary screen, biochemical, TR-FRET, GST-Vif 1-94, biotin-A3G peptide, dose response retest (AID 1117319); TR-FRET GST-Vif / biotin-A3G peptide binding; higher % means a stronger effect; test concentration not given here; strong numbers were not always called active; one-dose inhibition, %; IC50 in µM for titrated hits; 260,000 tested, 0.57% active;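 active = above the screen mean plus three standard deviations and confirmed in dose response; inconclusive = results disagree or hit not tested in dose response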;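 note: Vif residues 1-94 fused to GST binding biotinylated APOBEC3G peptide 110-148; 0% = full assay without inhibitor and 100% = GST in place of GST-Vif; retest series ran down from 100 µM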
# Ecoli rRNA inh OD600: also measured in Ecoli rRNA inh; calls as there; OD600 change, %; measured here: OD600 growth;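 optical density of the mix in the first replicate; 0 = DMSO median and -100 = no signal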
# Ecoli rRNA inh RFP: also measured in Ecoli rRNA inh; calls as there; RFP signal change, %; measured here: RFP humanized mutant strains;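 first replicate; 0 = DMSO median and -100 = no signal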
# Starred values were filed as active, the others as inactive; i = inactive; ? = inconclusive; / = not tested or not shown; & = joins results of further samples. Some of the compounds tested; rates above refer to the full screens.
SMILES,ALR H2O2 inh,MLL AF4-AF9 inh,HNF4A DNA FP,Ecoli growth,Ecoli rRNA inh,Ecoli rRNA inh OD600,Ecoli rRNA inh RFP,FGF22 binding,Vif TR-FRET
C[C@@H]1CN([C@H](C)CO)C(=O)c2cc(/C=C/c3ccccc3)cnc2O[C@H]1CN(C)C(=O)CN1CCOCC1,/,2.6,/,/,-2,-5,0.7,i,/
COc1cc(/C=N/NC(=O)c2nc(C)cc(C)n2)ccc1O,99*,/,-0.2,/,/,/,/,/,4%
CCN(C(=O)COC(=O)c1cccc(S(=O)(=O)NCc2ccccc2)c1)c1ccccc1,/,1.3,1.9,0.68,-8,-18,3.6,i,7%
CO[C@H]1CN(C)C(=O)c2cc(NS(=O)(=O)c3cccc(F)c3)ccc2OC[C@@H](C)N(C(=O)Cc2cccnc2)C[C@H]1C,/,1.0,/,/,2,-8,0.0,i,/
C[C@H]1CN([C@@H](C)CO)C(=O)c2cccc(NS(=O)(=O)c3ccc(Cl)cc3)c2O[C@@H]1CN(C)Cc1ccc(C(F)(F)F)cc1,/,3.8,/,/,-1,-9,2.8,i,/
Cc1ccccc1OCC(=O)NC(C)c1ccccc1 (centres undefined),-5,-3.2,4.4,0.67,-7,-5,-2.5,i,-4%
Cc1ccc(-n2nnnc2SCc2nnc(-c3ccccc3Br)o2)c(C)c1,/,3.7,2.3,0.74,-25,-22,8.4,i,9%
O=C(NCCCN1CCC(Cc2ccccc2)CC1)C1CCN(S(=O)(=O)N2CCOCC2)CC1,/,/,3.2,0.77,/,/,/,/,24%
CC(=O)c1ccc(N2CCN(c3ccc(S(=O)(=O)N4CCN(C)CC4)cn3)CC2)cc1,10,/,0.2,0.7,/,/,/,/,18%
COc1ccccc1N(CCC#N)C(=O)CSc1nc(-c2ccccc2)cn1N,/,/,1.3,0.71,/,/,/,/,-1%
COc1cc(NC(=O)CN(C)CCOc2ccccc2)c(C)cc1[N+](=O)[O-],0,0.1,-2.4,0.63,-1,-1,-1.9,i,0%
O=C(Sc1nnc(-c2ccccc2)o1)N1c2ccccc2Sc2ccccc21,93*,/,-1.5,0.69,/,/,/,/,-7%
O=C(CCN1C(=O)[C@@H]2Cc3ccccc3CN2C1=O)N[C@H](C(=O)O)c1ccccc1,4,-0.6,0.1,0.72,5,5,-2.6,i,-2%
O=C(NC(=S)N1CCCCCC1)c1ccc(Cl)cc1Cl,1,-3.8,4.5,0.73,19,8,1.5,i,?
CC(Oc1ccccc1)C(=O)N1CCC2(CC1)Oc1ccc(F)cc1C(=O)C21CC(c2ccccc2)=NO1 (centres undefined),-8,3.7,5.3,0.67,6,11,-1.6,i,/
Cc1c(CC(=O)NCCCCCC(=O)O)c(=O)oc2cc3occ(-c4ccccc4)c3cc12,/,-4.2,1.6,0.68,-18,-37,-7.7,i,-3%
O=C(CSc1nnc(Cc2ccccc2)n1-c1ccccc1)N1CCOCC1,2,/,5.0,0.69,/,/,/,/,0%
CCCn1c(N)c(C(=O)CSc2nc3ncc(Cl)cc3[nH]2)c(=O)[nH]c1=O,0,0.0,-2.6,0.68,10,10,-2.8,i,-14%
Cc1ccc(S(=O)(=O)Nc2ccc3c(c2)C(=O)N([C@@H](C)CO)C[C@@H](C)[C@H](CN(C)C(=O)CCCN(C)C)OCCCC[C@@H](C)O3)cc1,/,0.6,/,/,3,10,-0.4,i,/
COCCn1c(C)cc(C(=O)COC(=O)Cc2n[nH]c(=O)c3ccccc23)c1C,/,-9.5,6.0,0.59,10,0,1.9,i,4%
CCCCn1ccnc1C(=O)c1ccc(S(=O)(=O)N2CCCC2)cc1,-4,3.3,1.5,0.67,-6,-8,-7.8,i,-15%
C[C@@H]1CN([C@@H](C)CO)C(=O)c2cc(-c3ccc(F)cc3)cnc2O[C@@H]1CN(C)Cc1cccnc1,/,-12,/,/,-6,-11,-0.3,i,/
O=C1CC(c2ccccc2)(c2ccccc2)c2ccccc21,/,-1.1,-3.7,0.66,-8,-45,-1.3,i,2%
CC1CCCC(NC(=O)COC(=O)/C=C/c2ccco2)C1C (centres undefined),/,-1.5,-2.0,0.66,9,9,2.9,i,13%

# Sorted by molar mass (falling): four of the compounds above.
SMILES,ALR H2O2 inh,MLL AF4-AF9 inh,HNF4A DNA FP,Ecoli growth,Ecoli rRNA inh,Ecoli rRNA inh OD600,Ecoli rRNA inh RFP,FGF22 binding,Vif TR-FRET
CC(Oc1ccccc1)C(=O)N1CCC2(CC1)Oc1ccc(F)cc1C(=O)C21CC(c2ccccc2)=NO1 (centres undefined),-8,3.7,5.3,0.67,6,11,-1.6,i,/
Cc1c(CC(=O)NCCCCCC(=O)O)c(=O)oc2cc3occ(-c4ccccc4)c3cc12,/,-4.2,1.6,0.68,-18,-37,-7.7,i,-3%
COCCn1c(C)cc(C(=O)COC(=O)Cc2n[nH]c(=O)c3ccccc23)c1C,/,-9.5,6.0,0.59,10,0,1.9,i,4%
CC1CCCC(NC(=O)COC(=O)/C=C/c2ccco2)C1C (centres undefined),/,-1.5,-2.0,0.66,9,9,2.9,i,13%

# More entries.
SMILES,ALR H2O2 inh,MLL AF4-AF9 inh,HNF4A DNA FP,Ecoli growth,Ecoli rRNA inh,Ecoli rRNA inh OD600,Ecoli rRNA inh RFP,FGF22 binding,Vif TR-FRET
O=C(O)c1ccc(CN2C(=O)c3cccc4c([N+](=O)[O-])ccc(c34)C2=O)cc1,/,/,-35,0.69,41,18,3.2,/,8%
Cc1nn(C)c(C(=O)NNC(=S)Nc2ccc(Cl)cc2)c1[N+](=O)[O-],28,/,5.3,0.72,/,/,/,/,9%
O=C(N/N=C/c1c(Cl)cccc1Cl)c1ccc(F)cc1,/,7.3,3.5,/,10,-1,2.3,i,1%
CCOC(=O)C(Cc1ccc(N)cc1)N1C(=O)c2ccccc2C1=O (centres undefined),-10,3.1,-1.2,0.68,-1,14,7.0,i,5%
COc1ccc(C(C(=O)NCC2CCCO2)N(C(=O)CNC(=O)c2ccco2)c2cc(C)ccc2C)cc1OC (centres undefined),1,-0.2,-3.9,0.65,2,-2,-1.0,i,/
O=C(NCc1ccc2c(c1)OCO2)c1c(-c2ccccc2)sc2ccccc12,0,-17,0.0,0.66,3,5,2.4,i,/
CSc1cccc(Nc2ccc(S(=O)(=O)N3CCOCC3)cc2[N+](=O)[O-])c1,-2,8.5,-1.1,0.71,/,/,/,i,8%
Cc1ccc(S(=O)(=O)c2ncccc2[N+](=O)[O-])cc1,6,2.8,-2.2,/,11,10,-1.7,i,/
COc1ccc(-c2ccc([C@H]3[C@@H](CO)N4CCCCN(C(=O)c5ccc6c(c5)OCO6)C[C@@H]34)cc2)cc1,/,-3.2,/,/,9,3,10,i,/
O=C(O)COc1c(Cl)cc(/C=C2/NC(=O)NC2=O)cc1Br,1,0.9,-0.3,/,13,2,3.6,i,0%
COc1ccc(N=C2CCCN2CC(N)=O)cc1,/,/,4.3,0.73,/,/,/,/,?
Cc1nn(CC(=O)NCCc2ccc(Cl)cc2Cl)c(C)c1[N+](=O)[O-],1,-2.4,-1.2,0.67,5,0,2.1,i,7%
C[C@@H]1CCCCO[C@@H](CN(C)Cc2ccncc2)[C@H](C)CN([C@H](C)CO)C(=O)c2cc(NS(=O)(=O)c3cccs3)ccc2O1,/,1.7,/,/,-2,5,-1.2,i,/
CCCCC(=O)Nc1ccc(C(=O)Nc2ccc(S(=O)(=O)Nc3ccc(C)cc3)cc2)cc1,-3,/,-0.6,0.68,/,/,/,/,1%
Cc1ccc(SC2=C(C(=O)O)CCCC2)cc1,-4,-0.5,-5.0,0.68,5,9,-1.9,i,-5%
Fc1cccc2sc(Nc3nc4c(F)cccc4s3)nc12,-6,/,-2.0,/,/,/,/,/,-42%
CC1C(=O)C(C)C(c2ccc3c(c2)OCO3)NC1c1ccc2c(c1)OCO2 (centres undefined),-4,-11,-0.4,0.67,-18,-24,-22,i,1%
COc1ccc(C(=O)CSc2nnc(CNc3ccc(C)cc3C)n2Cc2ccco2)cc1,/,/,2.5,0.71,/,/,/,/,8%&-6%
Cc1noc(C)c1C(=O)OCC(=O)N1CCc2ccccc21,4,1.2,-2.8,0.72,6,5,-1.3,i,/
C=CCN=C1NC(c2ccc(F)cc2)C(C(=O)OC)=C(C)N1C (centres undefined),/,-2.0,/,/,22,22,8.5,i,/
CCc1nc(Nc2ccccc2F)c2oc3ccccc3c2n1,1,-0.6,2.7,0.69,-2,30,0.6,i,/
Cc1ccc2[nH]c(=O)c(CNC(C)(C)C)cc2c1,7,/,-3.0,0.67,/,/,/,/,9%
C[C@@H]1CN([C@H](C)CO)C(=O)c2cccc(NS(=O)(=O)c3ccc(Cl)cc3)c2O[C@H]1CN(C)Cc1ccc(-c2ccccc2)cc1,/,-1.0,/,/,7,2,2.7,i,/
O=C(Nc1ccc(C(F)(F)F)cc1)N[C@H]1CC[C@H](CC(=O)N2CCCCC2)O[C@H]1CO,/,-1.7,/,/,-6,2,1.7,i,/
CC1=C(C)CC(C(=O)NCCCN2CCCC2=O)C(C(=O)O)C1 (centres undefined),0,-0.1,-3.1,0.69,-2,2,-0.1,i,/
COC(=O)c1onc(-c2c(OC)cc(OC)cc2OC)c1C(=O)OC,-7,1.6,-3.7,0.63,8,3,-0.8,i,/
C[C@H](CO)N1C[C@H](C)[C@@H](CN(C)C(=O)Cc2cccnc2)Oc2ncc(C#Cc3ccccc3F)cc2C1=O,/,3.4,/,/,1,-13,2.3,i,/
C[C@H]1CN([C@@H](C)CO)C(=O)CCCn2cc(nn2)CO[C@H]1CN(C)S(=O)(=O)c1cccc(C#N)c1,/,-1.5,/,/,-1,-4,0.6,i,/
C[C@@H]1CN([C@@H](C)CO)C(=O)c2cccc(NC(=O)CCCCCC(=O)Nc3ccccc3N)c2O[C@H]1CN(C)C(=O)Nc1ccc(C(F)(F)F)cc1,/,-0.1,/,/,-1,-10,-0.7,i,/
COc1ccc(N2CCN(C(=O)CCc3ccc(S(=O)(=O)NC(C)C)cc3)CC2)cc1,/,4.6,-0.7,0.66,0,11,28,i,3%
COc1ccccc1CNC(=O)C[C@H]1CC[C@@H]2[C@H](COC[C@@H](O)CN2Cc2ccc3c(c2)OCO3)O1,/,0.1,/,/,-1,10,-5.3,i,/
Cc1noc(C)c1S(=O)(=O)N(C)C[C@@H]1Oc2c(NS(=O)(=O)c3cn(C)cn3)cccc2C(=O)N([C@H](C)CO)C[C@H]1C,/,-1.0,/,/,3,4,-1.8,i,/
C[C@H](CO)N1C[C@H](C)[C@@H](CN(C)C(=O)Nc2ccc(F)cc2)OCCCC[C@H](C)Oc2ccc(NC(=O)c3ccccc3)cc2C1=O,/,-0.4,/,/,-2,6,3.4,i,/
COc1cccc(CC(=O)Nc2ncc(C)s2)c1,-15,-1.2,0.0,0.65,3,8,1.8,i,/
COc1ccc(S(=O)(=O)Nc2ccc3c(c2)CC(=O)N([C@@H](C)CO)C[C@@H](C)[C@@H](CN(C)Cc2ccc(C(=O)Nc4ccccc4N)cc2)O3)cc1,/,-0.3,/,/,-5,-12,2.0,i,/
C[C@@H]1CCCCO[C@H](CN(C)Cc2ccncc2)[C@@H](C)CN([C@H](C)CO)C(=O)c2cc(NS(=O)(=O)c3ccc(F)cc3)ccc2O1,/,-1.5,/,/,-3,0,-1.4,i,/
C[n+]1cn(CC(O)COCc2ccccc2)c2ccccc21 (centres undefined),-8,/,-2.4,0.64,/,/,/,/,3%
